ClpP mod: qHTS Assay for Activators of ClpP; ATP-dependent Clp protease proteolytic subunit (Bacillus subtilis (strain 168)), P80244; purified B. subtilis ClpP, FRET peptide cleavage, 20 min; Potency, µM (highest dose often 57.5 µM), for inactives: at the top dose activity change, negative = active; 340,000 tested, 1.9% active; AID 651965, 2013; active = well fitted falling curve with a large enough effect; inconclusive = small, poorly fitted or top-dose-only effect; inactive = no such curve, though single readings can be large or run the other way; further: the source files actives as falling curves though it sought activators and does not explain the sign; nearly all actives have a fitted effect of over 65% in size; many hits overshoot -100%
Target sequence (P80244 whole entry, looked up): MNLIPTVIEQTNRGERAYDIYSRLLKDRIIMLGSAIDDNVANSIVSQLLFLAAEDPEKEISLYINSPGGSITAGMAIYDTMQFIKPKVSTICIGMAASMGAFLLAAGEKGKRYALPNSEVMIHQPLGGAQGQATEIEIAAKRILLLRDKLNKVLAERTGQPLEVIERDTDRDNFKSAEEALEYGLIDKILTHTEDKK
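Purified B. subtilis ClpP, 10 microg/mL final in Tris/HCl pH8 with KCl, BSA, glycerol and Tween-20, cleaved an Abz/nitrotyrosine-quenched decapeptide. Fluorescence (ex 320, em 430) was read at 0 and 20 min at room temperature. Delta was normalized to 5.8 microM ADEP and DMSO/no-enzyme controls.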
Starred values were filed as active, the others as inactive; ? = inconclusive. Potency means the concentration at half of the fitted maximal effect. A portion of the library; the hit share may differ from the screen's.

SMILES	ClpP mod
COc1ccc(CNC(=O)CCc2c(C)nn(-c3ccc(N4CCOCC4)nn3)c2C)c(OC)c1	-4.2%
CCOC(=O)[C@]12CCCC=C1N(CCC1=CCCCC1)C(=O)[C@H](CC(=O)N1CCC(c3ccccc3)CC1)C2	0.3%
Clc1ccc(CN2CCN(c3ncnc4sc5c(c34)CCCC5)CC2)cc1Cl	-2.3%
O=C(CCSCc1ccc(Cl)cc1)NCc1ccc(F)cc1Cl	-1.9%
COc1cc(C2C(=O)N(C3CCCCC3)CC(=O)N2CCC2=CCCCC2)ccc1OC(C)C (centres undefined)	1.2%
CC1CCCCN1C(=O)Cn1c(SCC(=O)N(C)c2ccccc2)nc2ccccc21 (centres undefined)	1.4%
O=C(Nc1ccc(C(=O)OCc2cc(=O)n3c4c(sc3n2)CCCC4)cc1)c1cccc(F)c1	-0.8%
CCC(=O)N1CCc2cc(S(=O)(=O)NC(CC(C)C)C(=O)NCCc3ccccc3)ccc21 (centres undefined)	0.2%
COc1ccc2c(CC(=O)Nc3ccc(C)cc3)coc2c1	-9.5%
Cc1cccn2c(=O)c3cc(C(=O)NC(C)(C)C)n(C)c3nc12	4.9%
CCc1ccc(-n2c(C)nnc2SCc2nc(-c3ccc(OC)cc3)no2)cc1	0.5%
Cc1ccc(CNC(=O)c2ccc3c(c2)N(Cc2ccccc2)C(=O)c2ccccc2S3(=O)=O)cc1	0.1%
Cc1cccc(N2CCN(C(=O)CS(=O)(=O)Cc3nc(-c4ccccc4C)oc3C)CC2C)c1 (centres undefined)	?
Cc1ccc(C)c(Nc2nn3c(=O)c4ccc(C(=O)NCc5cccs5)cc4nc3s2)c1	-3.0%
COc1ccc(-c2nc3scc(CCNS(=O)(=O)c4ccc(F)cc4C)n3n2)cc1	1.2%
O=C(COc1ccccc1)N(Cc1cccnc1)c1nc2c(F)cc(F)cc2s1	-0.7%
CC(=O)Nc1cccc(-c2nnc(SCC(=O)c3cc([N+](=O)[O-])ccc3Cl)o2)c1	-5.1%
O=C(c1c2c(nc3ccccc13)C(=O)N(C1CCCCC1)C2)N1CCN(c2ccc(F)cc2)CC1	0.1%
COc1ccc(NC(=O)CC2C(=O)N(c3ccc(C)cc3)C(=O)N2Cc2ccc(C)cc2)cc1 (centres undefined)	2.3%
CC/C(=C/c1ccccc1OC)c1cc(-c2ccccc2)cc2oc3ccccc3c12	4.4%
Cc1ccccc1CNC(=O)CCCn1c(=O)c2cccn2c2ccccc21	-9.2%
Cn1ccc2cc(S(=O)(=O)N3CCCC(C(=O)NCc4ccccc4F)C3)ccc21 (centres undefined)	-15.2%
COc1ccc(-c2cnc(C)o2)cc1S(=O)(=O)Nc1c(C)cc(C)cc1C	-5.6%
N#C/C(=C\c1ccc(F)cc1)c1nc(-c2ccc(-c3ccccc3)cc2)cs1	2.0%
COc1ccc(/C=C/c2nc(C#N)c(N3CCC(C(N)=O)CC3)o2)cc1OC	4.7%

An excerpt of these results, as a markdown table:
| canonical_smiles | ClpP mod |
| --- | --- |
| CCC(=O)N1CCc2cc(S(=O)(=O)NC(CC(C)C)C(=O)NCCc3ccccc3)ccc21 (centres undefined) | 0.2% |
| Cc1ccccc1CNC(=O)CCCn1c(=O)c2cccn2c2ccccc21 | -9.2% |
| Clc1ccc(CN2CCN(c3ncnc4sc5c(c34)CCCC5)CC2)cc1Cl | -2.3% |

Three records drawn at random from the list so far, as already listed:
SMILES	ClpP mod
Cc1cccc(N2CCN(C(=O)CS(=O)(=O)Cc3nc(-c4ccccc4C)oc3C)CC2C)c1 (centres undefined)	?
CCc1ccc(-n2c(C)nnc2SCc2nc(-c3ccc(OC)cc3)no2)cc1	0.5%
Cc1ccccc1CNC(=O)CCCn1c(=O)c2cccn2c2ccccc21	-9.2%

The list goes on.
SMILES	ClpP mod
COc1ccc(N2CC(NC(=O)c3ccc(S(=O)(=O)N4CCOCC4)cc3)CC2=O)cc1 (centres undefined)	-0.5%
CC(C)CCNC(=O)C1CCN(C(=O)N2CCOc3ccc(Cl)cc32)CC1	0.4%
CSc1ccc(CNC(=O)CCc2c(C)nn(-c3ccc(N4CCCC4)nn3)c2C)cc1	-10.7%
COc1cccc(NC(=O)CSC2=Nc3ccccc3C3=NC(CC(=O)NC4CCCCC4)C(=O)N23)c1 (centres undefined)	1.0%
Cn1ccc2cc(S(=O)(=O)N3CCC(C(=O)NCCc4ccccc4)CC3)ccc21	-16.1%
CCOc1ccccc1N(C)C(=O)Cn1nc(Cc2ccncc2)c2ccccc2c1=O	-3.4%
COc1cc(NC(=O)c2cc3c(=O)n(Cc4cccs4)ccc3nc2C)cc(OC)c1OC	-7.2%
Cc1ccc(CN2CCCn3nc(C(=O)NCCc4ccccc4Cl)cc3C2=O)cc1	1.4%
CCC1CCCCN1S(=O)(=O)c1ccc(NC(=O)c2cc(=O)c3c(C)cc(C)cc3o2)cc1 (centres undefined)	-4.0%
O=C(C[n+]1ccccc1Br)c1ccc(F)cc1	-3.7%
Cc1ccc(-c2nnc(SCC(=O)NC3CCCC3)nc2-c2ccc(C)cc2)cc1	0.1%
CC1=C(c2ccc(C)cc2)S(=O)(=O)NC1=NCc1cccc(F)c1	1.0%
CCOCCCn1c(SCC(=O)Nc2ccc(F)cc2)nc2c(sc3ccccc32)c1=O	-9.0%
COc1ccc(/C=C/C(=O)Nc2nc3n(n2)C(c2ccccc2)C=C(c2ccccc2)N3)cc1 (centres undefined)	-2.3%
CCNC(=O)c1ccc(-n2c(-c3ccccc3)cc3c2CCCCC3)cc1	-5.0%
CS(=O)(=O)NCCc1csc2nc(-c3ccccc3)nn12	0.4%
Cc1ccc(N2CC(NC(=O)c3ccc(S(=O)(=O)N4CCCCC4)cc3)CC2=O)cc1 (centres undefined)	0.6%
Cc1ccc2ccc(C(Nc3ccccc3)c3ccc(Cl)cc3)c(O)c2n1 (centres undefined)	0.5%
CCCOc1ccc(C2c3c(-c4c(C)cc(C)cc4O)n[nH]c3C(=O)N2CCO)cc1 (centres undefined)	-4.8%
Cc1cc(Oc2ccccc2)nc(C#N)n1	-1.7%
CC(=O)Nc1ccc(NS(=O)(=O)c2c(C(=O)N3CCC(C)CC3)c(C)n(C)c2C)cc1	-3.5%
Cc1cc(C)cc(NC(=O)CSc2c(C(C)C)cnc3c2c(=O)n(C)c(=O)n3C)c1	-2.4%
COc1ccc(C2C(=O)N(C3CCCCCC3)CC(=O)N2CCc2ccc(Cl)cc2)cc1OC (centres undefined)	-0.1%
CSc1ccc(-c2nc3cccc(C)n3c2Nc2ccc3c(c2)OCO3)cc1	3.9%
CC(=O)Nc1ccccc1-c1nc2ccccc2n(CC(=O)Nc2cccc(C)c2C)c1=O	0.4%

Next part:
SMILES	ClpP mod
CC(=O)N1CCc2cc(S(=O)(=O)NC(CC(C)C)C(=O)Nc3ccc(C(C)C)cc3)ccc21 (centres undefined)	-0.4%
COc1cccc(N2CCN(S(=O)(=O)c3cn(C)c(C)n3)CC2)c1	0.3%
CCOc1cc(C(=O)Nc2cc3c(cc2N2CCCC2)n(C)c(=O)c(=O)n3C)cc(OCC)c1OCC	3.9%
Cc1cccc(C)c1OCC(=O)Nc1nonc1-c1ccc(Br)cc1	1.1%
CCCc1cc(C(=O)Nc2c(C)nn(Cc3ccc(Cl)c(Cl)c3)c2C)no1	0.0%
CCOc1ccccc1NC(=O)c1ccc2oc(=O)c(S(=O)(=O)c3ccc(F)cc3)cc2c1	-2.5%
Cc1cccc(-n2ncc3c(Nc4ccc(Oc5ccc(Cl)cc5)cc4)ncnc32)c1	3.9%
Cc1ccc(-n2nc3c(N4CCC(C(=O)NC(C)c5ccccc5)CC4)nnc(C)c3c2C)cc1 (centres undefined)	4.5%
Cc1ccc(-n2nc(C)c3c(C)cc(=O)n(CC(=O)NCc4ccc(OC(C)C)cc4)c32)cc1	-6.6%
COc1cccc(NS(=O)(=O)c2ccc3c(c2)N(C)C(=O)CC(=O)N3C)c1	1.0%
CC(C(=O)NCc1ccccc1)n1c(-c2ccc3c(c2)CCO3)nc2ccccc21 (centres undefined)	4.7%
Cc1nn(CCC(=O)NCc2cccc(Br)c2)c(=O)c2nn(-c3ccccc3)c(C)c12	-10.2%
CCc1ccc(S(=O)(=O)Nc2ccc(-c3ccc(N4CCCCCC4)nn3)cc2)cc1	0.3%
CC1CCN(C(=O)CSc2nc(-c3ccc(C(C)C)cc3)no2)CC1	-1.8%
Cc1ccccc1NC(=O)CSc1nc(-c2ccccc2C)nc2cc(=O)[nH]n12	-1.8%
Cc1ccccc1-c1nnn(CC(=O)Nc2sc3c(c2C#N)CCC(C(C)(C)C)C3)n1 (centres undefined)	-0.1%
COc1cccc(CNC(=O)CN2C(=O)CSc3ccc(S(=O)(=O)N(C)C)cc32)c1	3.3%
Cc1cc(C)cc(-n2c(SCC(=O)N3CCc4ccccc43)nc3c([nH]c4ccccc43)c2=O)c1	-5.6%
Cc1ccc(-n2nc(C(=O)NCCc3cccc(C)c3)c3c4ccccc4n(C)c3c2=O)cc1	-2.6%
CC(C)NC(=O)N[C@H]1C=C[C@H](CC(=O)NCc2ccc(Oc3ccccc3)cc2)O[C@@H]1CO	1.0%
CC1=C(c2ccc(C)c(C)c2)S(=O)(=O)N=C1N1CCC(C(=O)NC(C)Cc2ccco2)CC1 (centres undefined)	0.2%
Cc1cccc(N2CCN(CCCNC(=O)c3sc4ncccc4c3-n3cccc3)CC2C)c1 (centres undefined)	-0.9%
Cc1ccc(OCCn2cc(C(=O)c3ccco3)c3ccccc32)cc1C	?
CCOc1ccc(CNCc2c(C(=O)O)c(C)n(Cc3ccc(C)cc3)c2C)cc1	0.3%
CCCN1CNc2c(c(=O)[nH]c(=S)n2CCc2cc(Cl)cc(Cl)c2)C1	-1.5%

Reformatted in CSV form: 3 of the compounds above
Structure,ClpP mod
CC1CCN(C(=O)CSc2nc(-c3ccc(C(C)C)cc3)no2)CC1,-1.8%
Cc1ccc(-n2nc(C(=O)NCCc3cccc(C)c3)c3c4ccccc4n(C)c3c2=O)cc1,-2.6%
Cc1nn(CCC(=O)NCc2cccc(Br)c2)c(=O)c2nn(-c3ccccc3)c(C)c12,-10.2%

(next part)
SMILES	ClpP mod
O=C(CCc1nc(CN2CCN(S(=O)(=O)c3ccc(Cl)cc3)CC2)no1)N1CCCCC1	0.0%
COc1ccc(CNc2oc(-c3ccc(COc4ccc(Cl)cc4)o3)nc2C#N)cc1	12.6µM*
CC(=O)Nc1ccc(C(=O)N2c3ccccc3N=C(c3ccc4c(c3)OCO4)C2C(=O)NCc2ccccc2)cc1 (centres undefined)	-27.2%
Cc1cccn2c(=O)c(C(=O)NC(C)c3ccccc3)c(O)nc12 (centres undefined)	4.4%
Cc1ccc2nc(COc3ccccc3NC(=O)COc3ccccc3Cl)cc(=O)n2c1	-7.7%
CCOC(=O)c1ccccc1NC(=O)c1sc2nc3n(c(=O)c2c1C)CCCC3	1.2%
O=C(Nc1ccccc1C(F)(F)F)c1ccc2oc(=O)c(S(=O)(=O)c3ccc(F)cc3)cc2c1	-8.6%
COc1ccc(-c2nc(SCC(=O)NC3CCCC3)c(-c3ccc(F)cc3)[nH]2)cc1OC	-9.8%
O=C(c1ccc2c(c1)N(Cc1ccccc1)C(=O)c1ccccc1S2(=O)=O)N1CCCCCC1	1.1%
Cc1ccc(C(=O)Nc2c(C)nc3ccccn3c2=O)cc1	-7.2%
Cc1noc(-c2ccc(-c3noc(-c4cccc(Cl)c4)n3)cc2)n1	0.6%
CCCc1nn2c(=O)cc(COc3ccc(/C=C(\C#N)C(=O)Nc4ccccc4)cc3)nc2s1	-2.6%
COc1ccc(-n2nc3ccc(NC(=O)c4cc5ccccc5o4)cc3n2)cc1Cl	-25.3%
COc1cccc(Cn2c(=O)n(-c3ccccc3C)c(=O)c3c2c2cc(C)ccc2n3C)c1	3.7%
CCN(CC)c1cc(C)c2cc(NC(=O)/C=C/c3ccccc3OC(C)C)ccc2n1	1.1%
Cc1cccc(NS(=O)(=O)c2c(C)nc3sccn3c2=O)c1C	-2.6%
O=S(=O)(c1ccc(Br)cc1)c1nc(-c2cccs2)oc1SCc1ccccc1F	-11.3%
COc1ccc(OC)c(CCNc2nc3ccccc3c3nc(-c4cccnc4)nn23)c1	-3.5%
Cn1c(=O)c2c(nc(NCCc3ccccc3)n2Cc2ccc(Cl)c(Cl)c2)n(C)c1=O	-1.7%
CCCCCOc1ccc(/C=C/C(=O)Nc2sc(C(C)=O)c(C)c2C(=O)OCC)cc1OC	-17.2%
COc1cccc2c1Oc1ncccc1N(C(=O)Nc1cccc(Cl)c1)C2	-11.5%
COC(=O)CN1C(C(=O)c2ccccc2)=C(OC(=O)c2ccc(F)cc2)c2ccccc2S1(=O)=O	-2.7%
Cc1ccc2ncc(C)c(C)c2c1	0.8%
CCOc1ccccc1NC(=O)CN1C(=O)CC(c2ccc(C)c(C)c2)=Nc2ccccc21	-6.2%
CCOC(=O)C1CCN(C(c2ccc(F)cc2)c2sc3nc(-c4ccco4)nn3c2O)CC1 (centres undefined)	0.5%

(further entries)
SMILES	ClpP mod
CCc1ccc(NC(=O)CN(c2ccc(C)cc2)S(=O)(=O)c2c(C)nn(C)c2C)cc1	-0.8%
COc1ccc(OC)c(NC(=O)CS(=O)(=O)Cc2nc(-c3ccc(C)cc3)oc2C)c1	-6.3%
O=C1NC[C@@H](CCCCN2CCN(CCc3ccccc3)C(=O)C2=O)N(CCC2CCCCC2)C1=O	0.1%
CSCCC(NS(=O)(=O)c1ccc2c(c1)oc(=O)n2C)C(=O)N1CCN(c2cc(C)ccc2C)CC1 (centres undefined)	-3.2%
COc1cc2nc(CCc3nc4cc(OC)c(OC)cc4[nH]3)[nH]c2cc1OC	-3.8%
O=C(NCCc1ccccc1)c1cc2sccc2n1Cc1ccc(F)cc1	-4.0%
CC(=O)c1ccc(N2C(=O)N(Cc3cc(C)ccc3C)c3ccccc3S2(=O)=O)cc1	2.7%
Cc1ccc(Cn2c(=O)n(Cc3nc(-c4ccccc4)no3)c(=O)c3cc4c(cc32)OCO4)cc1	-7.8%

Compound activity as filed in PubChem.
